Insulin prom inh: TRM-6 insulin promoter activity inhibition | AID 1273 | TRM-6 cells (human fetal islet line), insulin promoter-eGFP reporter, imaging; reporter expression induced with tamoxifen | inhibition, % at 2 µM | 0.9% of 130,000 active;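 active = inhibition above the mean plus 3 SD, with well images judged a real hit on visual review, cut at about 60% in these data, passing the limit was not always enough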
GALR2 ag: GALR2 (human) receptor agonism. AID 803. GALR2-expressing cells, agonist activation read-out. activation, %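 (tested at 5 µM)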. O43603. 0.48% of 140,000 active;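 active = above mean plus 3 SD of all compounds, about 5% in these data, not always enough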;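 note: 0% = vehicle buffer wells and 100% = reference agonist at full effect; tested in CHO reporter cells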
Target sequence (O43603 whole entry, looked up): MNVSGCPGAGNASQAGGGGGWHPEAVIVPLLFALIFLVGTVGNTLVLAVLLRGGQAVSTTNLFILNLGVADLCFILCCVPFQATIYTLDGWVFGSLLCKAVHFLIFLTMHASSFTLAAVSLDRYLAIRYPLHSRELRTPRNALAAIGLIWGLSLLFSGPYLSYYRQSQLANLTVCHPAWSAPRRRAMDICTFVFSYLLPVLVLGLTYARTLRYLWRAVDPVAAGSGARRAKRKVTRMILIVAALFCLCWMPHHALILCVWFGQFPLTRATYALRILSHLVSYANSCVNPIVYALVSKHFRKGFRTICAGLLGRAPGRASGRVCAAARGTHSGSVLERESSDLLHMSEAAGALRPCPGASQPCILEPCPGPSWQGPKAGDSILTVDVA
HSV augment: HSV replication enhancement | 0.005% of 220,000 active | maximum fold increase | HSV replication augmentation in cells, fold increase;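 active = peak rise of 1.5-fold or more in the series; tested in PC3 cells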;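 note: first round at 10 µM; read as green reporter fluorescence; hits show the peak of a series up to 25 µM; 1 = signal of infected wells without compound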
PKD1 inh: blocks activity of human protein kinase D1; 0.056% of 200,000 active; PKD1 kinase fluorescence polarization assay; inhibition, %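 (about 10 µM by stock and volumes)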;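 active = inhibition of 50% or more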;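 note: controls were vehicle for no effect and a reference inhibitor for full effect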
RGS16-Gao: regulators of human RGS16-Galphao interaction; bead-based flow cytometry RGS16-Galphao binding, fluorescence; actives lie on both sides; binding response (% of control), % at 10 µM; 0.38% of 220,000 active;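 active = below 25% or above 175%, edge rows of some plates excepted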;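 note: Galphao activated by GDP with aluminum fluoride before binding; 100% = wells without compound and 0% = beads without RGS; some results beyond the cut were filed as inactive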
Target sequence (O15492 whole entry, looked up): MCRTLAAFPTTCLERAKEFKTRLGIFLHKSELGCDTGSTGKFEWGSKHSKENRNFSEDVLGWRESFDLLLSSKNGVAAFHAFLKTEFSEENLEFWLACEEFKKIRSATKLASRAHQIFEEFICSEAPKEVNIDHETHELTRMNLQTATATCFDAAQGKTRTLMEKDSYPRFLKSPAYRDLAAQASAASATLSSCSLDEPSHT
Target sequence (P09471 whole entry, looked up): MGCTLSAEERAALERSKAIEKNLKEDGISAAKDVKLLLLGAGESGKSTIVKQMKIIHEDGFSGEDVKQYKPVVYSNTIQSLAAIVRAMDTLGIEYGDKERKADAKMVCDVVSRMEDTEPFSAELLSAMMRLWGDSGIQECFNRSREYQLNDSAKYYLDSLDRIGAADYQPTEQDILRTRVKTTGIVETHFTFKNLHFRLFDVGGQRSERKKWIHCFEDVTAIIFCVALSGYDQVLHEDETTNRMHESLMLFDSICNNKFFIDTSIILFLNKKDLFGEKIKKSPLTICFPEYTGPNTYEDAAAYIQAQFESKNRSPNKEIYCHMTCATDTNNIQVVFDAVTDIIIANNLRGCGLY
Insulin prom inh cell count: also measured in Insulin prom inh; calls as there; normalized cell count, %; measured here: cell count, toxicity; reference of the scale not given here;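 cells exposed to compound for 48 h; stained nuclei by imaging scaled within each plate; lower means fewer cells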
HSV augment primary fold: also measured in HSV augment; calls as there; fold increase; compound at 10 µM; measured here: primary screen fold increase 10 uM; tested in PC3 cells;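 GFP signal in the first replicate; 1 = infected wells without compound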
The depositor's hits bear a star; i = inactive; . = not tested or not shown.

item	Molecule	Insulin prom inh	Insulin prom inh cell count	GALR2 ag	HSV augment	HSV augment primary fold	PKD1 inh	RGS16-Gao
1	O=c1c(C(c2ccccc2)c2c(O)nc3n(c2=O)CCS3)c(O)nc2n1CCS2	-29	106	-2.8	i	0.94	2	79
2	CC(C)(C)C(=O)NCCN1CCN(C(=O)C(C)(C)C)CC1	71	125	-1.8	i	0.94	-12	110
3	CC(C)n1c(NCc2cc(Cl)ccc2O)nc2ccccc21	.	.	-1.9	i	0.84	8	120
4	C/C(=N/NC(=O)CNC(=O)CCc1ccccc1)c1ccc(Cl)c(Cl)c1	.	.	.	i	1.1	.	99
5	Cc1cc(OCC(=O)Nc2ccc3c(c2)OCCO3)ccc1Cl	-13	118	-2.7	i	1	-4	99
6	Cc1ccc(-n2c(SCC(=O)N3CCOCC3)nnc2-c2ccncc2)cc1	-69	106	0.0	i	0.7	-20	102
7	COC(=O)C1C(=O)C2=C(CC1C)NC(C)=C(C(=O)OCCOc1ccccc1)C2c1ccc(C)o1 (centres undefined)	-8	88	-0.8	i	0.9	-15	107
8	COc1ccc(C(=O)NCC(=O)N=Nc2c(O)n(C)c3ccccc23)cc1OC	.	.	.	i	1	.	100
9	COc1cccc(C(=O)N2CCN(C(=O)c3ccc(-c4ccccc4)cc3)CC2)c1OC	.	.	.	i	0.87	-5	105
10	CCCCN(CCCC)S(=O)(=O)c1ccc2[nH]c(=O)[nH]c2c1	.	.	-2.9	i	0.93	-4	106

The final two records of the part above are carried over, then new ones follow:
item	Molecule	Insulin prom inh	Insulin prom inh cell count	GALR2 ag	HSV augment	HSV augment primary fold	PKD1 inh	RGS16-Gao
9	COc1cccc(C(=O)N2CCN(C(=O)c3ccc(-c4ccccc4)cc3)CC2)c1OC	.	.	.	i	0.87	-5	105
10	CCCCN(CCCC)S(=O)(=O)c1ccc2[nH]c(=O)[nH]c2c1	.	.	-2.9	i	0.93	-4	106
11	NC(=O)COc1ccc(=O)n(-c2ccccc2)n1	.	.	-0.5	i	0.88	-8	104
12	COC(=O)C1=C(CN2CCSCC2)NC(=O)NC1c1cc(C)ccc1C (centres undefined)	-26	141	-0.6	i	0.98	-2	111
13	CC1=[N+](CC(=O)NC(C)(C)C)CCc2ccccc21	-80	54	-1.1	i	1.1	-3	100
14	CCOC(=O)Nc1nnc(-c2ccc(OC)c(OC)c2)s1	.	.	0.4	i	0.89	7	99
15	Cc1cc(C(F)(F)F)c2c(=O)[nH]c(=O)n(Cc3ccccc3)c2n1	24	69	-5.1	i	1.1	-8	65
16	CC(C)(C)c1ccc(C(=O)NC(=S)Nn2cnnc2)cc1	.	.	-1.0	i	1	9	99
17	O=C(c1cc(-c2cccs2)on1)N1CCOCC1	.	.	-2.1	i	1	12	44
18	Cc1onc(-c2ccccc2)c1C(=O)Nc1nnc(COc2ccc(Cl)cc2)s1	23	152	-0.2	.	.	-11	40
19	O=C(NC1CCCCC1)C1CCN(S(=O)(=O)c2cccc3nsnc23)CC1	30	64	-1.7	i	0.86	-8	102
20	O=C(O)C(Cc1ccccc1)n1cccc1 (centres undefined)	.	.	-0.7	i	1	-2	96
21	O=S(=O)(NCc1ccccc1Cl)c1cnc[nH]1	.	.	-0.3	i	0.87	5	99
22	CCOc1cc(C(c2c(C)[nH][nH]c2=O)c2c(C)[nH][nH]c2=O)ccc1OCc1ccc([N+](=O)[O-])cc1	.	.	-3.5	i	0.85	-1	103
23	Cc1ccc(S(=O)(=O)Nc2ccc3[nH]c(=O)[nH]c3c2)c(C)c1	.	.	.	i	0.81	9	106
24	CCC1(C)Cc2ccccc2C(=S)N1 (centres undefined)	9	141	.	i	0.9	2	109
25	Cc1ccc(S(=O)(=O)N2CCC(=O)N(C(COCc3cccc(C(F)(F)F)c3)C(C)C)CC2)cc1 (centres undefined)	-140	43	-1.1	i	0.86	-6	44
26	CCOCCCNC(=O)C(NC(=O)CNC(=O)c1ccccc1)c1ccccc1 (centres undefined)	-47	66	-3.4	i	1.1	11	-123
27	O=C(Cn1cnc2ccccc2c1=O)N1CCc2ccccc2C1	56	83	.	i	1	3	99
28	Cc1ccc(CN2C(=O)C(C)Oc3ccccc32)cc1 (centres undefined)	0	86	.	i	1	-3	203
29	Cc1ccc(N(CC(=O)N2CCOCC2)S(C)(=O)=O)cc1	-22	63	.	i	1.1	0	100
30	O=C(C(NS(=O)(=O)c1cccs1)c1ccccc1)N1CCN(c2ccccc2)CC1 (centres undefined)	.	.	-0.8	i	1.1	-3	102
31	COc1ccc(S(=O)(=O)Cc2ccc(C(=O)NCc3cccs3)o2)cc1	.	.	-2.4	i	0.79	13	107
32	C=CCSC(=C(C#N)C#N)c1cc2c([nH]1)CCCC2	-36	78	-1.4	i	1	-7	100
33	CCNS(=O)(=O)c1ccc(NC(=O)Nc2cccc(C(F)(F)F)c2)cc1	-37	72	-0.1	i	0.64	-8	98
34	CCOc1cc(CNC(C)C)c(Cl)cc1OCC(=O)NCCc1ccccc1	30	93	-2.8	i	0.89	15	108
35	O=C(NCC(=O)N(c1cccnc1)C(C(=O)NCc1ccco1)c1ccccc1)c1ccco1 (centres undefined)	.	.	-0.7	i	0.9	1	103
36	Cc1cc(C)c(C(=O)CSc2nnc(N)s2)cc1C	.	.	.	i	0.9	.	115
37	CCCCOC(=O)Nc1nc2ccc([N+](=O)[O-])cc2s1	.	.	.	i	0.83	-2	101
38	CCOC(=O)CC1(C)OCC(C[N+]2(C)CCCCC2)O1 (centres undefined)	-7	100	.	i	1.1	-1	104
39	COC(=O)[C@@]1(Cc2ccc(OC)cc2)[C@H]2c3cc(C(=O)N4CCCC4)n(CCO)c3C[C@H]2CN1C(=O)c1ccccc1	36	75	-2.4	i	0.92	-5	106
40	O=C(Nc1ccccc1N1CCCC1)c1cc2ccccc2o1	-42	111	-1.1	.	.	-5	125
41	COc1ccc(C(=O)NCC(=O)OCC(=O)Nc2cccc(S(=O)(=O)N3CCCC3)c2)cc1	.	.	.	i	0.85	.	103
42	CCOc1ccccc1OCCOCCOc1ccccc1[N+](=O)[O-]	33	91	-0.2	i	0.96	6	106
43	COc1cc(CNC2CCCC2)cc(Cl)c1OCc1ccccc1F	-6	67	7.3	i	0.68	3	99
44	COc1ccc(/C=C/C(=O)Nc2ccccc2C(F)(F)F)cc1	-9	103	-0.8	i	0.98	11	103
45	Cc1ccc2cc(C#N)c(SCC(=O)N3CCCc4ccccc43)nc2c1	-19	84	-2.2	i	0.99	2	99
46	CCCCn1c(=N)n(CC(=O)C(C)(C)C)c2ccccc21	.	.	-1.9	i	1.1	0	98
47	CN1CCN(C(=O)c2cc(S(=O)(=O)Nc3ccccc3F)c(Cl)cc2Cl)CC1	.	.	.	i	0.92	.	105
48	CCN(CC)CCn1c(NCc2ccc3c(c2)OCO3)nc2ccccc21	.	.	.	i	1	1	103
49	CCCCOc1ccc(-c2nnn(CCC(=O)N3CCOCC3)n2)cc1	0	211	-1.5	i	0.82	5	104
50	N/C(Cc1ccccc1Sc1ccccc1)=N\O	-33	92	-1.1	i	0.74	-8	92

19 consecutive entries out of the list so far, for reference:
item	Molecule	Insulin prom inh	Insulin prom inh cell count	GALR2 ag	HSV augment	HSV augment primary fold	PKD1 inh	RGS16-Gao
32	C=CCSC(=C(C#N)C#N)c1cc2c([nH]1)CCCC2	-36	78	-1.4	i	1	-7	100
33	CCNS(=O)(=O)c1ccc(NC(=O)Nc2cccc(C(F)(F)F)c2)cc1	-37	72	-0.1	i	0.64	-8	98
34	CCOc1cc(CNC(C)C)c(Cl)cc1OCC(=O)NCCc1ccccc1	30	93	-2.8	i	0.89	15	108
35	O=C(NCC(=O)N(c1cccnc1)C(C(=O)NCc1ccco1)c1ccccc1)c1ccco1 (centres undefined)	.	.	-0.7	i	0.9	1	103
36	Cc1cc(C)c(C(=O)CSc2nnc(N)s2)cc1C	.	.	.	i	0.9	.	115
37	CCCCOC(=O)Nc1nc2ccc([N+](=O)[O-])cc2s1	.	.	.	i	0.83	-2	101
38	CCOC(=O)CC1(C)OCC(C[N+]2(C)CCCCC2)O1 (centres undefined)	-7	100	.	i	1.1	-1	104
39	COC(=O)[C@@]1(Cc2ccc(OC)cc2)[C@H]2c3cc(C(=O)N4CCCC4)n(CCO)c3C[C@H]2CN1C(=O)c1ccccc1	36	75	-2.4	i	0.92	-5	106
40	O=C(Nc1ccccc1N1CCCC1)c1cc2ccccc2o1	-42	111	-1.1	.	.	-5	125
41	COc1ccc(C(=O)NCC(=O)OCC(=O)Nc2cccc(S(=O)(=O)N3CCCC3)c2)cc1	.	.	.	i	0.85	.	103
42	CCOc1ccccc1OCCOCCOc1ccccc1[N+](=O)[O-]	33	91	-0.2	i	0.96	6	106
43	COc1cc(CNC2CCCC2)cc(Cl)c1OCc1ccccc1F	-6	67	7.3	i	0.68	3	99
44	COc1ccc(/C=C/C(=O)Nc2ccccc2C(F)(F)F)cc1	-9	103	-0.8	i	0.98	11	103
45	Cc1ccc2cc(C#N)c(SCC(=O)N3CCCc4ccccc43)nc2c1	-19	84	-2.2	i	0.99	2	99
46	CCCCn1c(=N)n(CC(=O)C(C)(C)C)c2ccccc21	.	.	-1.9	i	1.1	0	98
47	CN1CCN(C(=O)c2cc(S(=O)(=O)Nc3ccccc3F)c(Cl)cc2Cl)CC1	.	.	.	i	0.92	.	105
48	CCN(CC)CCn1c(NCc2ccc3c(c2)OCO3)nc2ccccc21	.	.	.	i	1	1	103
49	CCCCOc1ccc(-c2nnn(CCC(=O)N3CCOCC3)n2)cc1	0	211	-1.5	i	0.82	5	104
50	N/C(Cc1ccccc1Sc1ccccc1)=N\O	-33	92	-1.1	i	0.74	-8	92

(continued)
item	Molecule	Insulin prom inh	Insulin prom inh cell count	GALR2 ag	HSV augment	HSV augment primary fold	PKD1 inh	RGS16-Gao
51	O=C(CCc1ccccc1)NNC(=O)c1ccccc1C(=O)O	-27	119	0.1	i	0.93	-3	108
52	CC(C)C(C)NC(=O)COc1ncnc2sccc12 (centres undefined)	-328	31	.	i	1.1	-7	118
53	CN(CC(=O)NC(=O)NC(C)(C)C)CC(=O)Nc1ccccc1Cl	.	.	.	i	0.92	3	95
54	N#Cc1ccc(CSc2nnc(-c3ccccn3)n2-c2ccc(Cl)cc2)cc1	-32	72	-1.0	i	1.1	8	99
55	Cc1nc(SCCOc2ccc(F)cc2)c2ccccc2n1	-94	191	.	i	1	0	97
56	Cc1nc2c(C)cccc2c2c1COC2	.	.	.	i	1	.	100
57	COc1ccc2nc(SCCC(=O)O)cc(C)c2c1	.	.	.	i	1	.	108
58	CCOc1ccccc1NC(=O)C1CCN(S(=O)(=O)c2c(C)nn(C)c2C)CC1	.	.	-2.0	i	1	-8	106
59	CCC(=O)c1cn(CC(=O)NCC2CCCO2)c2ccccc12 (centres undefined)	-4	111	-1.8	i	0.91	-5	99
60	O=C(c1cc([N+](=O)[O-])ccc1Cl)N1CCN(c2ccccn2)CC1	35	95	.	i	1.1	2	105
61	Cc1ccc(-c2nnc(-c3cccs3)o2)cc1	.	.	.	i	0.95	-4	88
62	O=C(CS(=O)(=O)c1cn(Cc2ccc(Cl)cc2)c2ccccc12)N1CCCCC1	.	.	-4.8	i	0.9	-4	97
63	Cc1[nH]n(-c2ccccc2)c(=O)c1N=Nc1ccccc1C(=O)N1CCOCC1	-71	108	0.5	i	0.96	-8	101
64	COC(=O)c1ccc(C(=O)OC)nc1	-64	118	0.6	i	0.89	-7	100
65	Cc1ccc(NC(=O)CCc2ccc(S(=O)(=O)NC3CCCCC3)cc2)cc1	18	104	-2.1	i	0.92	1	102
66	COc1ccc(N(CC(=O)Nc2cccc(N(C)S(C)(=O)=O)c2)S(C)(=O)=O)cc1OC	-288	63	-1.4	i	0.96	0	100
67	O=C(NN=C1CCCC1)c1n[nH]c2c1CCCC2	-44	10	.	i	0.7	-9	85
68	CCc1ccccc1N(C1=NCCCS1)S(=O)(=O)c1ccc(C(C)(C)C)cc1	-8	100	-1.5	i	1	-7	106
69	O=C(Cn1cnc2ccccc21)OCC(=O)N1CCCc2ccccc21	30	80	-2.3	.	.	-2	105
70	CC(C)Oc1ccc(Cc2n[nH]c(=S)n2Cc2ccccc2)cc1Cl	.	.	.	i	0.86	-4	100
71	C=CCNC(=S)NC(=O)c1ccc(C)c(Br)c1	.	.	.	i	0.99	2	101
72	CC(NC(=O)CCC(=O)N1CCN(S(=O)(=O)c2ccc(Cl)cc2)CC1)c1ccccc1 (centres undefined)	-92	71	-1.6	i	1.1	-8	103

Screens as filed in PubChem.
